Screens as filed in PubChem.
VDR inh = inhibitors of human vitamin D receptor; Potency, µM, inactives show max response, negative = inhibition, most hits filed as inhibitors; VDR-SRC2-3 peptide fluorescence polarization, 2 h; P11473; actives 0.93% (n = 400,000); active = well fitted inhibition curve with a large enough effect; inconclusive = small, poorly fitted or top-dose-only effect, or another doubt; inactive = no such curve, though single readings can be large or run the other way; note: series mostly up to about 120 µM
Target sequence (P11473 whole entry, looked up): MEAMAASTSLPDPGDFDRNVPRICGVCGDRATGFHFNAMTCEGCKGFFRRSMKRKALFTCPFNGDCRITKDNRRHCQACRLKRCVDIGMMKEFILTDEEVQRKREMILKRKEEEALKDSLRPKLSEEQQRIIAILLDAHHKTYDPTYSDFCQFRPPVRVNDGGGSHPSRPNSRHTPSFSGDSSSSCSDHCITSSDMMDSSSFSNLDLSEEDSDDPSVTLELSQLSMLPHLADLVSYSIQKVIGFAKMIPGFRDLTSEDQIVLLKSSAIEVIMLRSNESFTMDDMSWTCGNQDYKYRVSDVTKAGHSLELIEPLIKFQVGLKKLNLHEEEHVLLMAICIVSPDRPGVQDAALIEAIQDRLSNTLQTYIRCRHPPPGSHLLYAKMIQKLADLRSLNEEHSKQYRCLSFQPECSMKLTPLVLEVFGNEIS
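Measured by FP: displacement of SRC2-3 coactivator peptide from VDR by library compounds, following a two-hour ambient incubation.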
The depositor's hits bear a star; u = inconclusive; & = joins results of further samples. % is set by controls: 0 for no effect and ±100 for the full control effect; potency is the fitted concentration of half-maximal effect. Some of the compounds tested; rates above refer to the full screens.

Start of the data: the first 3 compounds (preview)
# | smiles | VDR inh
1 | CCOC(=O)c1ccccc1O | 2.9%
2 | CCC(C(=O)Nc1ccccc1N1CCCC1)c1ccccc1 (stereo unspecified) | -12.5%
3 | CC(=O)Nc1ccc(OC(=O)c2ccccc2OC(C)=O)cc1 | 10.7%

All compounds of this part, previewed entries included:
# | smiles | VDR inh
1 | CCOC(=O)c1ccccc1O | 2.9%
2 | CCC(C(=O)Nc1ccccc1N1CCCC1)c1ccccc1 (stereo unspecified) | -12.5%
3 | CC(=O)Nc1ccc(OC(=O)c2ccccc2OC(C)=O)cc1 | 10.7%
4 | CCOc1ccc2nc(N3CCC(C(=O)Nc4ccccc4CC)CC3)sc2c1 | 12.5%
5 | CC[C@]12CCCN3CCc4c(n(c5ccccc45)[C@](O)(C(=O)OC)C1)[C@@H]32 | 0.5%
6 | Cc1ccsc1/C=C\C1=NCCCN1C | 8.2%
7 | COc1cc(C2Oc3cc(C4Oc5cc(O)cc(O)c5C(=O)C4O)ccc3OC2CO)ccc1O (stereo unspecified) | -0.8%
8 | COC(=O)C1=C(C)NC(C)=C(C(=O)OCCN2CCN(C(c3ccccc3)c3ccccc3)CC2)C1c1cccc([N+](=O)[O-])c1 (stereo unspecified) | -21.3%
9 | CCCCC(CC)COC(=O)c1ccccc1O (stereo unspecified) | 9.2%
10 | C/C(=C(/CCO)SS/C(CCO)=C(\C)N(C=O)Cc1cnc(C)nc1N)N(C=O)Cc1cnc(C)nc1N | 31.6µM*
11 | CC1O[C@@H](OCC2O[C@@H](Oc3cc(O)c4c(c3)OC(c3ccc(O)cc3)CC4=O)[C@H](O)[C@@H](O)[C@@H]2O)[C@H](O)[C@H](O)[C@H]1O (stereo partly specified) | 0.2%
12 | c1ccc(-n2cnnn2)cc1 | 11.0%
13 | CN(C(=O)c1c(O)c2ccccc2n(C)c1=O)c1ccccc1 | 5.3%
14 | CCC1(O)CC2CN(CCc3c([nH]c4ccccc34)[C@@](C(=O)OC)(c3cc4c(cc3OC)N(C)C3[C@]45CCN4CC=C[C@@](CC)([C@@H](OC(C)=O)[C@]3(O)C(=O)OC)[C@H]45)C2)C1 (stereo partly specified) | -4.2%
15 | CCCC(=O)O[C@]1(C(=O)COC(C)=O)CC[C@H]2[C@@H]3C[C@H](F)C4=CC(=O)C=C[C@]4(C)[C@@]3(F)[C@@H](O)C[C@@]21C | -20.7%
16 | CN(C)C/C=C(\c1ccc(Br)cc1)c1cccnc1 | 2.2%&-8.1%&1.2%
17 | O=C(Nc1cc(-c2ccccc2)nn1-c1ccccc1F)c1ccc([N+](=O)[O-])cc1 | -8.1%
18 | CC(=O)Oc1ccc2c(C)cc(=O)oc2c1 | 11.6%
19 | C[C@@H]1C[C@H]2[C@@H]3CCC4=CC(=O)C=C[C@]4(C)[C@@]3(Cl)[C@@H](O)C[C@]2(C)[C@@]1(OC(=O)c1ccco1)C(=O)CCl | -11.3%
20 | Nc1ncnc2c1c(-c1ccc(Oc3ccccc3)cc1)cn2C1CCCC1 | -17.0%&-1.2%
21 | NCc1ccccc1Sc1ccccc1CO | -3.2%
22 | CC[C@@]12CCCN3CCc4c(n(c5ccccc45)[C@](O)(C(=O)OC)C1)[C@H]32 | 0.4%&6.9%
23 | CC(C)(CO)[C@H](O)C(=O)NCCCO | 8.4%
24 | CN(c1nccc(=O)[nH]1)C1CCN(c2nc3ccccc3n2Cc2ccc(F)cc2)CC1 | -3.5%
25 | Cc1c(C)n(Cc2ccccc2)c2ccc(C(=O)OCCN(C)C)cc12 | -1.4%&15.0%
26 | CCc1ccccc1OC[C@@H](O)CN[C@H]1CCCc2ccccc21 | 9.2%&-8.9%
27 | CN(C)CCCSc1ccccc1NC(=O)/C=C/c1ccccc1 | -2.9%
28 | CC(C)OCc1cc(CN2CCN(c3ccccc3)CC2)c(O)c2ncccc12 | 5.8%
29 | CCCCOc1cc(C(=O)OCCN(CC)CC)ccc1N | -0.6%&-5.4%&-1.6%
30 | Cn1ccc2cc3c(cc21)CCN3C(=O)Nc1cccnc1 | u
31 | CC1(C)O[C@@H]2C[C@H]3[C@@H]4C[C@H](F)C5=CC(=O)C=C[C@]5(C)[C@@]4(F)[C@@H](O)C[C@]3(C)[C@]2(C(=O)CO)O1 | -0.4%
32 | NC(=O)C[C@@H](N)C(=O)O | 4.1%
33 | C=C1c2cccc(O)c2C(O)=C2C(=O)[C@@]3(O)C(O)=C(C(N)=O)C(=O)[C@@H](N(C)C)[C@@H]3[C@@H](O)[C@H]12 | u
34 | Cc1cc(=O)oc2cc(O)ccc12 | -10.2%&-8.4%
35 | COc1cc2c(c(OC)c1OC)-c1c(cc(OC)c(OC)c1OC)CC(C)C(C)C2 (stereo unspecified) | -17.2%
36 | COc1cc2nc(N3CCN(C(=O)[C@@H]4COc5ccccc5O4)CC3)nc(N)c2cc1OC | 5.7%
37 | O=C(NCCCN1CCOCC1)c1ccc(Cl)cc1 | -0.9%
38 | COc1cc(C=O)ccc1O | 8.8%
39 | CC1(C)[C@@H](O[C@H]2O[C@H](C(=O)O)[C@@H](O)[C@H](O)[C@H]2O[C@@H]2O[C@H](C(=O)O)[C@@H](O)[C@H](O)[C@H]2O)CC[C@]2(C)[C@H]3C(=O)C=C4[C@@H]5C[C@@](C)(C(=O)O)CC[C@]5(C)CC[C@@]4(C)[C@]3(C)CC[C@@H]12 | 7.4%
40 | CCN(CCCCOC(=O)c1ccc(OC)c(OC)c1)C(C)Cc1ccc(OC)cc1 (stereo unspecified) | -3.2%&-1.1%
41 | O=C(O)c1cc(=O)c2ccccc2o1 | -0.5%&-6.0%
42 | COc1ccc(-c2cc(C(F)F)nn2-c2ccc(S(N)(=O)=O)cc2)cc1F | -4.9%
43 | O=C(c1ccccn1)N(Cc1cccs1)C1(C(=O)NC2CCCCC2)CCCCC1 | -19.3%
44 | CCOC(=O)c1sc(NC(=O)c2c(-c3ccccc3)c(-c3ccccc3)nn(C)c2=O)nc1C | -2.1%
45 | C[C@@H]1CC[C@]2(C(=O)O)CC[C@]3(C)C(=CCC4[C@@]5(C)C[C@@H](O)[C@H](O)[C@@](C)(CO)C5CC[C@]43C)C2[C@H]1C (stereo partly specified) | -2.0%
46 | CCc1cccc(CC)c1NC(=O)CN(CC(=O)O)CC(=O)O | -15.4%&0.6%
47 | C[C@@]12CC[C@H]3[C@@H](CCC4=CC(=O)CC[C@]43C)[C@H]1CC[C@H]2C(=O)CO | 7.1%
48 | CCCOc1ccc2nc(NC(=O)OC)[nH]c2c1 | -4.2%
49 | CC1CCC2(C(=O)O)CCC3(C)C(=CCC4C3(C)CCC3[C@@]4(C)CC(O)C(O)[C@@]3(C)CO)C2C1C (stereo partly specified) | 15.1%
50 | Cc1scc2c1N(C(=O)CN1CCN(C)CC1)c1ccccc1NC2=O | 0.5%&7.2%&-13.7%&10.8%&-8.4%
51 | Cc1onc(-c2ccccc2Cl)c1C(=O)N[C@H]1C(=O)N2[C@H]1SC(C)(C)[C@H]2C(=O)O | 1.3%
52 | CCN(CC)CC1CCCCN1CC(=O)N1c2ccccc2C(=O)Nc2cccnc21 (stereo unspecified) | -0.7%
53 | O=[N+]([O-])c1cncn1CCN1CCOCC1 | -2.6%
54 | CCCC1(c2ccccc2)NC(=O)N(CC(=O)N(C)Cc2c(F)cccc2Cl)C1=O (stereo unspecified) | u
55 | Cc1ccccc1OCC(O)CO (stereo unspecified) | -1.5%
56 | CN(C)CC/C=C1/c2ccccc2COc2ccc(CC(=O)O)cc21 | -4.3%
57 | Cc1c(Cl)cccc1NC(=O)Cn1cc(C(=O)C2CCCCC2)c2ccccc21 | -13.8%
58 | Cc1ccc(C)c(Nc2nc3nonc3nc2Nc2cccc(C)c2C)c1 | 1.5%
59 | CCC1OC(=O)C[C@H](O)C(C)[C@@H](O[C@@H]2OC(C)C(O)C(N(C)C)C2O)C(CCN2CC(C)CC(C)C2)CC(C)C(=O)/C=C/C(C)=C\[C@@H]1COC1OC(C)C(O)C(OC)C1OC (stereo partly specified) | 6.4%
60 | CCCC(=O)O[C@]1(C(=O)CCl)[C@@H](C)C[C@H]2[C@@H]3CCC4=CC(=O)C=C[C@]4(C)[C@@]3(F)C(=O)C[C@@]21C | -14.4%

Fetched by structure from the entries so far (6):
# | smiles | VDR inh
3 | CC(=O)Nc1ccc(OC(=O)c2ccccc2OC(C)=O)cc1 | 10.7%
45 | C[C@@H]1CC[C@]2(C(=O)O)CC[C@]3(C)C(=CCC4[C@@]5(C)C[C@@H](O)[C@H](O)[C@@](C)(CO)C5CC[C@]43C)C2[C@H]1C (stereo partly specified) | -2.0%
56 | CN(C)CC/C=C1/c2ccccc2COc2ccc(CC(=O)O)cc21 | -4.3%
5 | CC[C@]12CCCN3CCc4c(n(c5ccccc45)[C@](O)(C(=O)OC)C1)[C@@H]32 | 0.5%
33 | C=C1c2cccc(O)c2C(O)=C2C(=O)[C@@]3(O)C(O)=C(C(N)=O)C(=O)[C@@H](N(C)C)[C@@H]3[C@@H](O)[C@H]12 | u
58 | Cc1ccc(C)c(Nc2nc3nonc3nc2Nc2cccc(C)c2C)c1 | 1.5%

Other entries follow:
# | smiles | VDR inh
61 | Cc1cc(Cn2cnc3c2C[C@@H](C(=O)O)N(C(=O)C(c2ccccc2)c2ccccc2)C3)ccc1N(C)C | -15.5%
62 | CN(C)S(=O)(=O)n1cc(/C=C(\NC(=O)c2ccccc2)C(=O)NCCCn2ccnc2)c2ccccc21 | 6.6%&1.9%
63 | CC(Cc1cccc(C(F)(F)F)c1)NCCOC(=O)c1ccccc1 (stereo unspecified) | -13.3%&-16.4%&3.1%
64 | Cc1cccc(Cc2c(C)nc3c(-c4ccccc4)c(C)[nH]n3c2=O)c1 | 14.7%
65 | COC(=O)c1ccccc1O | 5.9%
66 | CN[C@@H]1[C@H](O)[C@H](NC)[C@H]2O[C@@]3(O)C(=O)C[C@@H](C)O[C@H]3O[C@@H]2[C@H]1O | -29.5%
67 | CCCOc1ccc(C(=O)OCCN(CC)CC)cc1N | 17.1%&-2.7%
68 | CCCCCCCCCCCCOCCOCCOCCOCCOCCOCCOCCOCCOCCO | -8.9%&-15.5%

Values by screen from the entries so far.
Compounds 52 to 55 in VDR inh read -0.7%, -2.6%, u, -1.5%

Ordered by the number under VDR inh (falling): 4 of the compounds above
# | smiles | VDR inh
64 | Cc1cccc(Cc2c(C)nc3c(-c4ccccc4)c(C)[nH]n3c2=O)c1 | 14.7%
65 | COC(=O)c1ccccc1O | 5.9%
61 | Cc1cc(Cn2cnc3c2C[C@@H](C(=O)O)N(C(=O)C(c2ccccc2)c2ccccc2)C3)ccc1N(C)C | -15.5%
66 | CN[C@@H]1[C@H](O)[C@H](NC)[C@H]2O[C@@]3(O)C(=O)C[C@@H](C)O[C@H]3O[C@@H]2[C@H]1O | -29.5%
